Screening results from PubChem.
VDR inh – blocks the human vitamin D receptor; P11473; VDR-SRC2-3 peptide fluorescence polarization, 2 h; Potency, µM, for inactives: max response, negative = inhibition, hits mostly inhibitors; 0.93% of 400,000 active; AID 504847; active = well fitted inhibition curve with a large enough effect; inconclusive = small, poorly fitted or top-dose-only effect, or another doubt; inactive = no such curve, though single readings can be large or run the other way; note: series mostly up to about 120 µM
Target sequence (P11473 whole entry, looked up): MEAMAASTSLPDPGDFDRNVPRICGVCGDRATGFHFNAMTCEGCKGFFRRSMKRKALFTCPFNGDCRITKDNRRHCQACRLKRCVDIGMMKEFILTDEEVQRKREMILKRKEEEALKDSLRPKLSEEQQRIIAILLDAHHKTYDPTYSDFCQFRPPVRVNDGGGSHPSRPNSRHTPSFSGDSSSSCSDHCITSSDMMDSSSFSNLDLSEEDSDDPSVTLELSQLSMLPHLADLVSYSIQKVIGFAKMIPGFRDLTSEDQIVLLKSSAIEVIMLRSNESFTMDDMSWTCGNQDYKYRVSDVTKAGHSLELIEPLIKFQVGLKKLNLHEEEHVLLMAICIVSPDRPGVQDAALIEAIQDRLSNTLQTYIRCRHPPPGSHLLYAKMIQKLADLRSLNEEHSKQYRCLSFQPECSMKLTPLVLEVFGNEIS
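Inhibition of the VDR/SRC2-3 peptide interaction is quantified by fluorescence polarization. Compounds (23 nl, pintool) incubate with the reagents for 2 hours at ambient room temperature.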
Active calls of the source: *; & = joins results of further samples. % is set by controls: 0 for no effect and ±100 for the full control effect; potency is the fitted concentration of half-maximal effect.

What do the screens show for `Cc1noc(C)c1C(=O)N1CCC[C@@]2(CCN(CC(C)C)C2)C1`?
VDR inh: 7.0%

Results for CCN1C[C@]2(COC)CC[C@H](O)[C@@]34[C@@H]5C[C@H]6[C@@H](OC)[C@H]5[C@](O)(C[C@@H]6OC)[C@@](O)([C@@H](OC)[C@H]23)[C@@H]14 ?
VDR inh: -3.2%

What do the screens show for `COc1ccccc1N1C(=O)NC(=O)C2(Cc3cc(C)ccc3N(C)C2)C1=O` (stereo not given)?
VDR inh: inconclusive

Results for O=c1[nH]c(=O)n(Cc2ccccc2)c(O)c1/C=N/NCCO ?
VDR inh: 7.0%

How did COC(=O)C1=C(c2ccc(F)cc2OCc2ccccc2)C[C@@H]2CC[C@H]1N2C(=O)NCc1ccc(F)cc1 do in these assays?
VDR inh: 11.6%

Results for CN(C)CC#CCOCCOCCC#N ?
VDR inh: 13.1%

Results for C=C(C)c1cccc(C(C)(C)NC(=O)NC2CN3CCC2CC3)c1 (stereo not given) ?
VDR inh: -3.2%

How did Cc1c(N=Nc2c(O)[nH]c(=S)[nH]c2=O)c(=O)n(-c2ccccc2)n1C do in these assays?
VDR inh: -25.3%

How did COc1cccc(OC)c1C(=O)Nc1nc(N)n(-c2ccccc2)n1 do in these assays?
VDR inh: 7.8%

Results for Cc1cc(C)cc(N2C(=O)NC(=O)/C(=C\c3cccn3-c3ccc(Cl)cc3)C2=O)c1 ?
VDR inh: -0.8%

What do the screens show for `CC(C(=O)Nc1ccc(Br)cc1C(=O)c1ccccc1)N1CCOCC1` (stereo not given)?
VDR inh: 3.7%

How did CN1C(=O)C(C2c3ccccc3C(=O)N2Cc2ccc([N+](=O)[O-])cc2)C(=O)N(C)C1=O (stereo not given) do in these assays?
VDR inh: 2.2%

Among those listed so far, these contain four or more nitrogen atoms.
Results for O=c1[nH]c(=O)n(Cc2ccccc2)c(O)c1/C=N/NCCO ?
VDR inh: 7.0%

How did Cc1c(N=Nc2c(O)[nH]c(=S)[nH]c2=O)c(=O)n(-c2ccccc2)n1C do in these assays?
VDR inh: -25.3%

How did COc1cccc(OC)c1C(=O)Nc1nc(N)n(-c2ccccc2)n1 do in these assays?
VDR inh: 7.8%

How did CN1C(=O)C(C2c3ccccc3C(=O)N2Cc2ccc([N+](=O)[O-])cc2)C(=O)N(C)C1=O (stereo not given) do in these assays?
VDR inh: 2.2%

Additional compounds
Results for CCOC(=O)c1c(-c2ccc(OC)cc2)oc2ccc(OC(=O)N(C)C)cc12 ?
VDR inh: 17.0%

What do the screens show for `Cc1[nH]c2ccccc2c1C(=O)CN1CC=C(c2ccccc2)CC1`?
VDR inh: -6.4%

What do the screens show for `Cc1ccc(Cl)cc1N1CCN(CCN)CC1`?
VDR inh: -11.9%

What do the screens show for `COC(/C(C)=C/C=C/C(C)=C/c1coc(C)n1)C(C)C1CC(O)C2(C)OC2C=CC(C)C2CC(CC(=O)O2)CC2OC2C(=O)O1` (stereo not given)?
VDR inh: -19.6%

How did COc1ccc(C(=O)C2CCCN(Cc3cnc(C)s3)C2)cc1OC (stereo not given) do in these assays?
VDR inh: -14.1%

How did CCN1C[C@@]2(COC)CC[C@H](O)[C@@]34[C@@H]2C[C@@H]([C@@H]13)[C@]1(O)C[C@@H](OC)C2C[C@H]4[C@H]1[C@H]2OC(C)=O do in these assays?
VDR inh: 1.6%

Results for N#Cc1cc2c(nc1SCC(=O)Nc1ccc(C(F)(F)F)cc1)C1CCN2CC1 ?
VDR inh: -6.9%

How did COc1cc(N2CCOCC2)ccc1/C=C1\C(=O)NC(=O)N(Cc2cccs2)C1=O do in these assays?
VDR inh: -22.4%

How did CCC(=NCc1ccco1)c1c(O)n(-c2ccccc2C)c(=O)[nH]c1=O do in these assays?
VDR inh: 1.5%

Results for Cc1cccc(NC(=S)N2CC3CC(C2)c2cccc(=O)n2C3)c1C (stereo not given) ?
VDR inh: -0.2%

How did COC(=O)C1=C(c2cccc(OCc3ccccc3)c2)C[C@@H]2CC[C@H]1N2C(=O)NCc1cccc(OC)c1 do in these assays?
VDR inh: -18.6%

What do the screens show for `CNP(=O)(Oc1ccccc1)OC12CC3CC(CC(C3)C1)C2` (stereo not given)?
VDR inh: -7.8%

Reprinted at random: 2 records from the list
What do the screens show for `CNP(=O)(Oc1ccccc1)OC12CC3CC(CC(C3)C1)C2` (stereo not given)?
VDR inh: -7.8%

Results for CCOC(=O)c1c(-c2ccc(OC)cc2)oc2ccc(OC(=O)N(C)C)cc12 ?
VDR inh: 17.0%

Five entries from above, arranged by SMILES length, falling:
How did CCN1C[C@@]2(COC)CC[C@H](O)[C@@]34[C@@H]2C[C@@H]([C@@H]13)[C@]1(O)C[C@@H](OC)C2C[C@H]4[C@H]1[C@H]2OC(C)=O do in these assays?
VDR inh: 1.6%

Results for Cc1cccc(NC(=S)N2CC3CC(C2)c2cccc(=O)n2C3)c1C (stereo not given) ?
VDR inh: -0.2%

What do the screens show for `Cc1[nH]c2ccccc2c1C(=O)CN1CC=C(c2ccccc2)CC1`?
VDR inh: -6.4%

What do the screens show for `CNP(=O)(Oc1ccccc1)OC12CC3CC(CC(C3)C1)C2` (stereo not given)?
VDR inh: -7.8%

What do the screens show for `Cc1ccc(Cl)cc1N1CCN(CCN)CC1`?
VDR inh: -11.9%

Additional records
Results for COc1ccc(CNCCc2c[nH]c3ccccc23)cc1OC ?
VDR inh: 0.3%

How did CC(=NCc1cccnc1)c1c(O)n(Cc2ccccc2)c(=O)[nH]c1=O do in these assays?
VDR inh: -3.4%

What do the screens show for `CN1[C@@H](CC(=O)c2ccccc2)CCC[C@H]1C[C@H](O)c1ccccc1`?
VDR inh: 1.6%&0.5%&-8.3%&3.8%

How did CCn1c(C)c(C(=O)O)c2cc(OC)ccc21 do in these assays?
VDR inh: 19.5%

This is a subset (hit frequency here may not be typical).
